Screening data as filed in PubChem.
UCH37 inh – blocks the human deubiquitinase UCH37; purified proteasome/UCH37, Ub-AMC cleavage fluorescence; inhibition, % (no concentration beside the values); hit rate 0.33% among 330,000; AID 588478;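 active = mean of two replicates above 20%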;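 note: 0% = compound-free wells with enzyme and 100% = wells lacking proteasome; stock transfer was 100 nL into about 20 µL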
Target sequence (Q9Y5K5 whole entry, looked up): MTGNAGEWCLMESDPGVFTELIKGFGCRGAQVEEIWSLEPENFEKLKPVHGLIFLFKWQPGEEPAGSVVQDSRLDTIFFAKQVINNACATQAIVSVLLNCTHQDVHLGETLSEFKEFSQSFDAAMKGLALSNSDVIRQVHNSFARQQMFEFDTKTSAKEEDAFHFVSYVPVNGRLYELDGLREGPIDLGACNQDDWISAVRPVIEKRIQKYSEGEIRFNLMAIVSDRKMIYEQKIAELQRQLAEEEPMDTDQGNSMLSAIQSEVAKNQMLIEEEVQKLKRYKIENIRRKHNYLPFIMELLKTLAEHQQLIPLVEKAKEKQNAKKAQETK
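Reagent: Ub-AMC substrate; assay system: Proteasome-associated human UCH37 deubiquitinase; controls: no-proteasome and no-compound wells; read-out: % inhibition of Ub-AMC cleavage fluorescence; timing: 30 min preincubation with enzyme, 25 min cleavage at room temperature; signal: AMC fluorescence from Ub-AMC cleavage, excitation 355 nm, emission 460 nm; buffer or medium: Tris-HCl pH 7.4 plus ovalbumin, ATP-MgCl2, DTT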
E coli growth – E. coli growth inhibition. Escherichia coli growth, OD600, 23 h; active compounds read low. OD600 absorbance (test concentration not listed). hit rate 0.21% among 330,000;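 active = OD600 absorbance below the run mean of sample wells minus 3.6 SD, in any replicate, cut at about 0.56 in these data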;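 note: stock transfer was 300 nL into about 60 µL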
Active calls of the source: *. Only part of the results is shown; the hit share may differ from the screen's.

SMILES	UCH37 inh	E coli growth
COCc1cc(C)nc(OCC(=O)NN=Cc2ccc(O)cc2O)c1C#N	8.0	0.677
COc1ccc(C(=O)C(C)=NO)cc1OC	2.4	0.655
CCNc1nc(NCC)nc(N(C)N=Cc2ccco2)n1	7.6	0.679
CC(=NNC(=O)c1ccn(C)n1)c1ccco1	4.0	0.625
CC(=NNC(=O)CNC(=O)c1ccccn1)c1ccc([N+](=O)[O-])cc1	0.7	0.693
COc1ccc(-c2nn(CCC(=O)O)cc2C=NNC(N)=S)cc1	2.8	0.661
NS(=O)(=O)c1ccc(NN=Cc2ccccc2C(=O)O)c([N+](=O)[O-])c1	-30.6	0.694
CCCCC(O)(CCCC)C(=O)NN=C(C)c1ccc(Cl)cc1	6.4	0.681
CC(C=NNC(=O)c1nnn(-c2nonc2N)c1CN1CCCCC1)c1ccccc1 (stereo not given)	6.2	0.736
O=[N+]([O-])c1ccc(-c2ccc(C=NNc3nc(NCc4ccccc4)nc(N4CCOCC4)n3)o2)cc1	5.4	0.693
C(/C=C/c1ccccc1)=NN1CCN(Cc2ccccc2)CC1	1.8	0.641
COc1ccccc1C=NNC(=O)CNC(=O)c1ccc(S(=O)(=O)N(C)C)cc1	1.7	0.682
COc1ccc(C=Nn2c(=O)[nH]c3c([nH]c4ccc(Cl)cc43)c2=O)cc1CN1CCCCC1	6.2	0.632
COc1ccc(C=NN2CCN(c3ccc(Cl)cc3)CC2)cc1O	4.9	0.642
COc1ccc2c(c1OC)C(=O)OC2CC(=NNC(N)=O)c1ccccc1 (stereo not given)	2.9	0.639
O=C(COc1ccccc1)NN=Cc1ccc2c(c1)OCO2	2.6	0.672
COc1ccc(OC)c(-c2cc(C(=O)NN=Cc3ccc(F)cc3)c3ccccc3n2)c1	-36.7	0.669
COc1ccccc1C(=O)NN=Cc1c[nH]c2ccccc12	-0.5	0.632
O=C(CSCc1ccc(Cl)cc1)NN=Cc1ccco1	2.2	0.664
COc1ccccc1C=Nn1c(C)nnc1-n1nc(C)cc1C	1.6	0.671
COc1ccc(C=NNC(=S)NCc2ccccc2)cc1OC	4.3	0.663
Cc1[nH]c2ccccc2c1C=NNC(=O)Cn1nnc(-c2ccccc2)n1	2.2	0.724
O=C(NN=Cc1ccco1)c1cc(C2CC2)nc2ccccc12	0.5	0.661
S=c1[nH]nc(C2CCCCC2)n1N=Cc1ccco1	2.1	0.711
CC12CCC(CC1=NO)C2(C)CBr (stereo not given)	5.5	0.66
COC(=O)NN=Cc1cn(CCCOc2ccc(C)cc2)c2ccccc12	4.6	0.68
CCC(=O)NN=c1sc2ccccc2n1C	-0.7	0.634
CCOC(=O)CC(C)(C)C(C)=NNc1ccc([N+](=O)[O-])cc1[N+](=O)[O-]	5.9	0.694
Cc1cc(-c2ccccc2)nc(NN=Cc2ccccc2F)n1	-0.8	0.64
Cc1cc(C)n(-c2nncn2N=Cc2ccccc2F)n1	5.0	0.726
COc1ccc(C=NNc2cc(C)nc(N3CCOCC3)n2)c(OC)c1	-1.3	0.718
O=C(CNC(=O)c1ccccc1)NN=Cc1ccccc1Cl	1.2	0.641
O=C(C[n+]1cccc(C(=O)NN=Cc2cccc([N+](=O)[O-])c2)c1)c1ccccc1	5.1	0.649
CC1CCCC(C)N1N=Cc1ccccc1F (stereo not given)	-0.7	0.706
O=C(NN=Cc1cccc(OC(=O)c2ccco2)c1)c1ccc2c(c1)OCO2	2.3	0.677
CC(=NNc1cc(C(F)(F)F)ccc1Cl)c1ccccc1O	3.6	0.752
Nc1ccc(C(=O)NN=Cc2cn(Cc3cccc(F)c3)c3ccccc23)cc1	-7.2	0.651
O=C(CNC(=O)C(c1ccccc1)c1ccccc1)NN=Cc1ccc(O)cc1O	-1.6	0.686
CC(=NNc1ccccn1)c1ccc(C#N)cc1	6.6	0.698
CN1CCN(N=Cc2ccc(N(c3ccccc3)c3ccccc3)cc2)CC1	-34.4	0.618
CC(=NNc1ccc(Cl)cc1)C(=NO)C(=O)Nc1ccccc1	-0.1	0.675
Cc1ccc(C=NNC(=O)CNC(=O)c2ccc(S(=O)(=O)N(C)C)cc2)o1	4.7	0.702
CCN1C(=O)CSC1=NS(=O)(=O)c1ccccc1	3.8	0.658
S=c1[nH]nc(-c2ccco2)n1N=Cc1ccc(Cl)c(Cl)c1	0.5	0.669
O=C1CSC(=NN=Cc2cccs2)N1Cc1ccc(F)cc1	1.5	0.628

Record cards (already shown). Values in the order: UCH37 inh, E coli growth
Results for `O=C(C[n+]1cccc(C(=O)NN=Cc2cccc([N+](=O)[O-])c2)c1)c1ccccc1` → 5.1, 0.649
Results for `CC(=NNc1ccc(Cl)cc1)C(=NO)C(=O)Nc1ccccc1` → -0.1, 0.675
Results for `O=C(CNC(=O)c1ccccc1)NN=Cc1ccccc1Cl` → 1.2, 0.641

Carrying on.
SMILES	UCH37 inh	E coli growth
O=C(NN=Cc1ccccn1)c1sc2ccccc2c1Cl	5.8	0.612
COC(=O)/C(=C/C(=O)c1ccccc1)Nc1ccc(OC)cc1	4.0	0.702
Cc1cc(-c2ccccc2)nc(NN=Cc2ccc([N+](=O)[O-])cc2)n1	3.4	0.675
COc1ccc(C=NNC(=O)c2cc(O)c(O)c(O)c2)cc1CN1CCN(c2ccc(F)cc2)CC1	10.6	0.658
Cc1nn(-c2ccccc2)c(C)c1C=NNC(=O)c1cnccn1	7.7	0.665
COc1cc(C=NNc2nc(N3CCCCC3)nc(N3CCCCC3)n2)ccc1OC(=O)c1ccco1	0.9	0.68
COc1c(O)ccc(C=NNC(=O)c2ccc3c(c2)OCCO3)c1[N+](=O)[O-]	4.2	0.736
O=C(CCc1ccccc1)NN=Cc1cccc([N+](=O)[O-])c1	1.8	0.64
CN(N=Cc1cc(Cl)cc(Cl)c1O)C(=S)NC(C)(C)C	-19.2	0.628
O=C(NN=Cc1ccccn1)C12CC3CC(CC(C3)C1)C2	2.8	0.666
CCNC(=S)NN=C1CCCCc2ccccc21	0.4	0.689
C(=NN1CCN(c2ccccc2)CC1)c1ccccc1	2.4	0.715
COc1ccc(O)c(C=NNC(=O)CSc2nnc(C)n2-c2ccccc2)c1	3.2	0.769
COc1ccc(CC(=O)NN=Cc2ccc(-c3ccc(F)cc3)o2)cc1OC	1.7	0.646
CCOC(=O)CC(C)=NNC(=O)Nc1ccccc1	6.8	0.704

By substructure: those above containing a Cl atom (10)
SMILES	UCH37 inh	E coli growth
CCCCC(O)(CCCC)C(=O)NN=C(C)c1ccc(Cl)cc1	6.4	0.681
COc1ccc(C=Nn2c(=O)[nH]c3c([nH]c4ccc(Cl)cc43)c2=O)cc1CN1CCCCC1	6.2	0.632
COc1ccc(C=NN2CCN(c3ccc(Cl)cc3)CC2)cc1O	4.9	0.642
O=C(CSCc1ccc(Cl)cc1)NN=Cc1ccco1	2.2	0.664
O=C(CNC(=O)c1ccccc1)NN=Cc1ccccc1Cl	1.2	0.641
CC(=NNc1cc(C(F)(F)F)ccc1Cl)c1ccccc1O	3.6	0.752
CC(=NNc1ccc(Cl)cc1)C(=NO)C(=O)Nc1ccccc1	-0.1	0.675
S=c1[nH]nc(-c2ccco2)n1N=Cc1ccc(Cl)c(Cl)c1	0.5	0.669
O=C(NN=Cc1ccccn1)c1sc2ccccc2c1Cl	5.8	0.612
CN(N=Cc1cc(Cl)cc(Cl)c1O)C(=S)NC(C)(C)C	-19.2	0.628

Following part:
SMILES	UCH37 inh	E coli growth
NC(=O)NN=Cc1ccccc1OCc1cccc2ccccc12	5.0	0.693
O=C(NN=Cc1ccccn1)c1ccc(Br)o1	2.9	0.706
Cc1ccc(NCC(=O)NN=Cc2ccc(-c3cccc(C(F)(F)F)c3)o2)cc1	3.6	0.658
NC(=O)NN=Cc1ccc(-n2nncc2-c2ccc(Cl)cc2)cc1	3.0	0.688
O=C(NN=Cc1ccc[nH]1)c1ccc([N+](=O)[O-])cc1	8.6	0.72
CC(=NO)c1ccc(N2C(=O)C3CC=C(Cl)CC3C2=O)cc1 (stereo not given)	0.4	0.626
Cc1ccsc1C=NNC(=O)c1ccc2ccccc2c1	2.5	0.699
Cc1cc(C=NNC(N)=S)c(C)n1-c1ccc(Cl)c(Cl)c1	-1.9	0.687
CC(C=NNC(=O)c1cccnc1)c1ccccc1 (stereo not given)	-3.2	0.691
Cc1occc1C(=O)NN=Cc1cccs1	5.7	0.683
Cc1ccc2nc(C)cc(NN=Cc3cccnc3)c2c1	-10.3	0.679
COc1cc(OC)c(OC)cc1C=NNC(=O)c1ccc2nc[nH]c2c1	-5.7	0.637
CCOc1cc(C(=O)NN=CC2CC=CCC2)cc(OCC)c1OCC (stereo not given)	5.3	0.683
CON=CNC(=O)c1ccc([N+](=O)[O-])c(CS(=O)(=O)c2ccc(Cl)cc2)c1	2.4	0.802
COc1cccc(C(=O)NCC(=O)NN=Cc2c(C)[nH]c3ccccc23)c1	3.7	0.669
Cc1cccc(-n2c(C)cc(C=NNC(=O)c3cccc([N+](=O)[O-])c3C)c2C)c1	-0.3	0.668
O=C(CSc1ccc(Cl)cc1)NN=Cc1cccnc1	3.6	0.705
CCN(CC)c1ccc(C=NNC(=O)c2ccc3nc[nH]c3c2)c(O)c1	-22.3	0.6
CCOC(=O)C(=NNc1ccc(OC)cc1)N1CCCc2ccccc21	6.0	0.666
Cc1ccc(S(=O)(=O)N2CCN(CC(=O)NN=Cc3ccc(C)o3)CC2)cc1	4.7	0.723
NC(=NO)c1ccc(NC(=O)c2ccc(Br)o2)cc1	6.0	0.653
COc1ccc(C=NNC(=O)c2nonc2N)cc1OC	10.7	0.645
O=C(O)CC1SC(=NN=C2CCCCCC2)N(c2ccccc2)C1=O (stereo not given)	2.0	0.626
COc1ccc(C=Nn2c(-c3n[nH]c4c3CCC4)n[nH]c2=S)cc1OC	2.9	0.725
COc1cc(C=NNC(=O)Cc2ccccc2)cc([N+](=O)[O-])c1O	21.9*	0.681
CCOC(=O)c1c(-c2ccc(F)cc2)csc1N=CN(C)C	6.4	0.697
COc1cc(C=NN2CCN(c3ccccc3)CC2)ccc1OC(C)=O	3.4	0.677
CC(Nc1n[nH]c(=O)[nH]c1=O)C(=O)NN=Cc1cccs1 (stereo not given)	2.2	0.725
S=c1[nH]ncn1N=Cc1ccc(N2CCOCC2)cc1	-12.7	0.682
Cc1ccc(OCC(=O)NN=C/C=C/c2ccco2)cc1C	8.3	0.716
O=C1N/C(=N\N=Cc2cccs2)SC1Cc1ccc(Cl)cc1 (stereo not given)	7.1	0.718
C/C(C=NNC(=O)c1nnn(-c2nonc2N)c1CN1CCC(C)CC1)=C/c1ccccc1	8.0	0.698
COc1cccc(C=NNC(=O)CCc2c(C)n[nH]c2C)c1O	-5.7	0.732
COc1cc(C=NNC(=O)Cn2cnc3c2c(=O)n(C)c(=O)n3C)ccc1O	-0.5	0.64
Cc1cc(C)cc(C(=O)NN=Cc2ccoc2)c1	3.6	0.667
O=C(CCC(=O)NN=Cc1ccc(Br)o1)NN=Cc1ccc(Br)o1	1.8	0.689
O=c1[nH]c(NN=Cc2ccc3c(c2)OCO3)nc2ccccc12	-3.2	0.675
CC(=O)CNc1ccc(S(=O)(=O)NN=Cc2ccccc2)cc1	1.9	0.664
O=C(NN=Cc1ccc(O)cc1)/C(=C/c1ccccc1)CCO	9.0	0.643
COc1cc(C=NNC(N)=O)cc(Br)c1OCc1ccc(C)cc1	1.0	0.713
O=C1C2C3C=CC(CC3)C2C(=O)N1N=Cc1c[nH]c2ccccc12 (stereo not given)	3.0	0.633
COc1ccc2c(c1)CC(C)CC2=NNC(=O)c1ccco1 (stereo not given)	7.3	0.653
O=C(NN=C1CC(=NNC(=O)c2ccncc2)c2ccccc21)c1ccncc1	45.7*	0.668
COc1cc(C=NNC(=O)c2cc(-c3cccc(Br)c3)nc3ccccc23)cc(OC)c1O	-3.2	0.612
Cc1cccc(C=NNC(=O)Cn2nccc2C)n1	-0.4	0.678
Cc1cc(C(=O)NN=Cc2ccc(-c3cccc(Cl)c3)o2)n[nH]1	-299.2	0.679
CC(=NNC(=O)CN(c1ccc(C)cc1)S(C)(=O)=O)c1cccs1	1.3	0.691
CN(N=Cc1ccncc1)c1cnc2ccccc2n1	-81.5	0.723
ON=CC1=C(Cl)c2ccccc2CC1	3.2	0.63
O=C(CNS(=O)(=O)c1ccccc1)NN=Cc1ccc(Cl)cc1	3.8	0.707
NC(=O)NN=C/C=C/C=C/c1ccc(F)cc1	-0.4	0.697
CCOC(=O)c1c(C)oc(N=Cc2ccccc2O)c1C#N	-1.3	0.705
CNC(=S)NN=Cc1c(C)nn(-c2ccc(F)cc2)c1Cl	1.3	0.711
CCOc1ccc(C=Nn2c(SC)nnc2-c2ccccc2)cc1OCC	1.6	0.695
CCOc1ccc(C=NNC(=O)c2cc3c(OC)cc(OC)c(OC)c3[nH]2)cc1	-45.1	0.623
CCOc1ccc(C=NNC(=O)c2ccoc2C)cc1OC	5.2	0.673
Cc1nn(-c2ccccc2)c(C)c1C=NNC(=O)CSc1nnc(SCc2cccc3ccccc23)s1	6.6	0.74
O=C(CSCc1ccccc1Cl)NN=Cc1ccco1	5.1	0.666
CC(=NNS(=O)(=O)c1ccc(Br)cc1)c1ccc(-n2ccnc2)cc1	5.0	0.734
O=C(NN=Cc1cc2c(cc1[N+](=O)[O-])OCO2)c1cccnc1	8.3	0.628

More entries follow.
SMILES	UCH37 inh	E coli growth
CC(=NNC(=O)Cn1ccc(C(F)(F)F)n1)c1ccc(N2CCOCC2)cc1	-3.8	0.641
COc1ccc(C=NNC(=O)CNC(=O)c2ccc3c(c2)OCCO3)cc1OC	2.0	0.681
CCn1c(SCC(=O)NN=C/C=C/c2ccccc2[N+](=O)[O-])nnc1-c1ccccc1	5.5	0.728
COC(=O)c1ccccc1-c1ccc(C=NNC(N)=O)o1	-17.5	0.686
CN(C)S(=O)(=O)c1cccc(NC(=S)NN=Cc2cc(Br)ccc2O)c1	0.7	0.71
